Compound activity from PubChem BioAssay.
AmpC inh no det = Promiscuous and Specific Inhibitors of AmpC Beta-Lactamase (assay without detergent); P00811; AmpC nitrocefin hydrolysis, absorbance 480 nm, no detergent; potencies from a single point are estimates; Potency, µM (series often up to 28.7 µM), inactives show top-dose activity change, negative = inhibition; hit rate 1.8% among 71,000; AID 585, 2007; active = falling curve, for most hits resting on a single point; inconclusive = weak or doubtful change; inactive = flat or rising curve; note: % of control where 0% means no effect; about half of the hits show no inhibition at the top dose; a quarter of the inactives give rising signals
Target sequence (P00811 whole entry, looked up): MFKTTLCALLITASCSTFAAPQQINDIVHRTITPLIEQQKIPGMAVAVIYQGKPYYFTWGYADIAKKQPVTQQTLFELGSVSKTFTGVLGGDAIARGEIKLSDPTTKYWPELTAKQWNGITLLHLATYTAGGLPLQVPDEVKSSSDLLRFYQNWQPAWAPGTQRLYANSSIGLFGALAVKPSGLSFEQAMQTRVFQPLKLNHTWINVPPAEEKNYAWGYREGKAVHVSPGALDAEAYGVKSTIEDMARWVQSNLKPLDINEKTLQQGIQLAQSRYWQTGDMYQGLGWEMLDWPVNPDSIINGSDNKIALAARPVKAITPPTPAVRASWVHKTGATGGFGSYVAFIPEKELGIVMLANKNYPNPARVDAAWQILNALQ
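AmpC in 20 mM phosphate buffer pH 7.0 was preincubated 15 min at room temperature with compounds. Nitrocefin (800 uM stock) was then added and hydrolysis followed at 480 nm every 20 s for 4 min.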
Numbers without * were called inactive; ? = inconclusive; [ ] = remark or other dose. Potency is the fitted concentration of half-maximal effect. The list is partial. The share of hits here may be higher or lower than overall.

SMILES | AmpC inh no det
Cc1nn(Cc2ccccc2Cl)c(C)c1C(=O)NC1=NCCS1 | 17.8%
Nc1c(C(=O)NC2CCCC2)sc2nc(-c3cccs3)ccc12 | -4.5%
CC(C)C(=O)c1cn(Cc2ccccc2C#N)c2ccccc12 | 7.2%
Cc1ccc(C(C)C)c(OCC(=O)OCc2c(C)noc2C)c1 | 52.7%
c1ccc(-n2ncc3c(NCc4cccnc4)ncnc32)cc1 | 14.1%
COc1ccc(-c2nn3c(-c4ccccc4)nnc3s2)cc1 | 113.2%
COCCCN(Cc1ccccn1)S(=O)(=O)Cc1ccccc1 | -1.4%
Cc1nnc(SCC(=O)NC(C)(C)C)n1CCc1ccccc1 | 15.4%
COc1ccccc1CCn1c(=O)c(-c2cccc(F)c2)nc2cncnc21 | 6.5%
O=c1cccc2n1CC1CC2CN(Cc2ccc3c(c2)OCO3)C1 (stereo not drawn) | 16.2%
O=C(CN1C(=O)NC2(CCCCC2)C1=O)Nc1ccc(S(=O)(=O)N2CCOCC2)cc1 | 9.4%
Cc1ccc(C)n1-c1ccc(-c2nnc3n2CCCCC3)s1 | 70.1%
COC(=O)CNC(=O)C1CCCN1C(=O)OC(C)(C)C (stereo not drawn) | -6.0%
Cc1cccn2cc(-c3ccccc3)nc12 | -3.6%
CCCn1c(C)nc2c(NC3CCN(Cc4ccccc4)C3)nc(C)nc21 (stereo not drawn) | 18.7%
OC(Cn1cccn1)c1ccccc1 (stereo not drawn) | -5.0%
O=C(Nc1ccc(Cl)cc1)c1ccncc1 | -4.1%
O=C(NC1(C(=O)NC2CCCCC2)CCCCC1)c1ccc2c(c1)OCO2 | -1.5%
Oc1c(Br)cc(Br)cc1Br | -8.1%
CCOCN(C(=O)Cn1c(CO)nc2ccccc21)c1c(C)cccc1CC | 132.5%
C=CCN1C(=O)C2(C(C(=O)OCC)=C(N)Oc3ccccc32)c2c1c1ccccc1oc2=O (stereo not drawn) | 9.4%
O=c1c(-c2cccc(F)c2)nc2cncnc2n1C1CC1 | 2.6%
Cc1nn(-c2cccc(Cl)c2)c2c1C(c1cccnc1)C(C#N)=C(N)O2 (stereo not drawn) | -8.0%
CCCCN(CCCNC(=O)c1c(C)cc(=O)oc1C)c1ccccc1 | 111.2%
Cc1c(CN2CCN(c3cccc(C(F)(F)F)c3)CC2)c(=O)n(-c2ccccc2)n1C | 79.3%
O=C(CN1CCN(CCC(=O)Nc2ccccc2F)CC1)Nc1ccc(F)cc1 | 28.2%
COc1cc(OC)cc(C(=O)N2CCN(C(=O)c3ccc(OC)c(OC)c3)CC2)c1 | 35.2%
CCC12CN3CCN(CC(C3)/C1=N\O)C2 | -3.0%
O=C(c1nc2nc(-c3ccc(Cl)cc3)cc(C(F)(F)F)n2n1)N1CCOCC1 | 30.7%
O=C(CCc1ccccc1)Nc1ccc(NC(=O)c2ccco2)cc1 | -10.6%
Cc1ccccc1N1C(=O)CC(N(O)c2ccccc2)C1=O (stereo not drawn) | -10.4%
CN1Cc2c(C(=O)OC(C)(C)C)ncn2-c2ccsc2C1=O | 2.7%
c1ccc(Nc2nc(-c3cccnc3)nc3ccccc23)cc1 | 9.4%
COc1ccc(NC(=O)CN2CCN(CC(=O)Nc3ccc(OC)c(OC)c3)CC2)cc1 | 33.5%
C=C(C)c1cccc(C(C)(C)NC(=O)N2CCN(CC)CC2)c1 | 4.8%
c1ccc(CN2CCN(c3ncccn3)CC2)nc1 | 0.1%
COc1ccc2c(C(=O)CN3CCN(CCO)CC3)c[nH]c2c1 | -19.6%
Cc1cc(=O)oc2cc(OC(C)C)ccc12 | 6.7%
CCN1CCCC1CNC(=O)CCc1nc(-c2ccc(C)cc2)no1 (stereo not drawn) | 2.0%
CN1CCN(c2ncc3nc(-c4cccs4)c(=O)n(-c4ccccc4)c3n2)CC1 | 117.9%
COc1ccc(NC(=O)CSc2nc(O)cc(=O)n2-c2ccccc2OC)cc1 | 29.4%
COc1ccc(OC)c(S(=O)(=O)N2Cc3ccccc3CC2C(=O)Nc2nccs2)c1 (stereo not drawn) | 9.8%
CCc1ccc2[nH]c(=O)c(CN(CCO)C(=O)NCc3ccccc3)cc2c1 | 66.3%
O=C(COC(=O)CCNS(=O)(=O)c1ccc(Cl)cc1)NCc1ccco1 | 19.6%
Cc1nc2cc(NC(=O)NCc3ccco3)ccc2n1C | -0.9%

An excerpt of these results, as labelled records.
COc1ccc(NC(=O)CSc2nc(O)cc(=O)n2-c2ccccc2OC)cc1
  AmpC inh no det: 29.4%

COc1ccc(OC)c(S(=O)(=O)N2Cc3ccccc3CC2C(=O)Nc2nccs2)c1 (stereo not drawn)
  AmpC inh no det: 9.8%

Next section.
SMILES | AmpC inh no det
Cn1c(=O)c2c(-c3ccccc3)n(Cc3ccccn3)cc2n(C)c1=O | 19.6%
O=C(CSc1nc(O)cc(=O)[nH]1)N1CCCc2ccccc21 | -12.4%
COc1ccccc1-c1nnc(SCC(=O)NC2CCCCC2)o1 | 24.0%
COc1ccc2oc(-c3ccc(O)cc3)cc(=O)c2c1 | 61.5%
CCCCCN=Cc1c(C)[nH]n(-c2nc3ccccc3s2)c1=O | 70.2%
O=C(CCCOc1ccccc1)n1nnc2ccccc21 | 5.1%
CCOc1ncccc1C(=O)Nc1ccc(-c2cn3ccsc3n2)cc1 | 25.3%
CCN1CCN(C(=O)CS(=O)(=O)Cc2nc(-c3ccc(C)cc3)oc2C)CC1 | 41.0%
Cc1ccc(NC(=O)CSc2nnc(NC(=O)CN3CCOCC3)s2)cc1 | 10.1%
COc1ccc(C(=O)N2CC3(C)CC2CC(C)(C)C3)cc1 (stereo not drawn) | 49.1%
C[C@@]1(C(NS(=O)(=O)c2cccc3cccnc23)c2ccc(-c3ccccc3)cc2)C[C@H]1C1CCCCC1 (stereo partly drawn) | -16.8%
CCCCOC(=O)Nc1ccc(C(=O)OCCC)cc1 | -16.6%
COc1ccc(N2C(=O)C(CC(=O)Nc3ccccc3)N(Cc3ccc4c(c3)OCO4)C2=O)cc1 (stereo not drawn) | 30.5%
O=C1CC(O)(C(F)(F)F)Oc2c1ccc1ccccc21 (stereo not drawn) | -21.2%
Cn1c(NCc2ccccc2O)nc2ccccc21 | 118.6%
Cc1noc(C)c1C(=O)N1CCC2(CC1)CCN(c1ncccn1)CC2 | 35.2%
CCC(=O)Nc1ccc(NC(=O)CSc2nnnn2C(C)C)cc1 | -2.5%
CCCn1nnc(NC(=O)c2ccccc2Cl)n1 | -3.5%
COc1ccccc1N(CC(=O)Nc1ccccc1C(=O)NCC(C)C)S(C)(=O)=O | 29.4%
CCOc1nc(-c2ccccc2)ccc1-c1noc(-c2ccco2)n1 | -0.3%
C=CCSc1n[nH]c(-c2ccc(OCCC)cc2)n1 | 9.3%
COc1cc(CCC(=O)OCn2nnc3ccccc3c2=O)cc(OC)c1OC | 26.7%
COc1ccc(-n2cc(-c3ccccc3)c3c(N4CCN(CCO)CC4)ncnc32)cc1 | 126.9%
O=C(c1ccccc1)N1CCN(C(=O)N2CCOCC2)CC1 | 8.6%
Cc1cccc(CCNC(=O)C2CCCN(S(=O)(=O)c3cccc4nsnc34)C2)c1 (stereo not drawn) | 27.2%
CCN1CCN(CCCNC(=O)c2csc3c2CCCCC3)CC1 | 3.3%
CCNC(=O)C(C)Sc1ccc(Cl)cc1 (stereo not drawn) | 92.1%
COC(=O)Cc1[nH]nc2c1C(C1C=CCCC1)C(C#N)=C(N)O2 (stereo not drawn) | -21.9%
c1ccc(Nc2ncncc2-c2ccc3c(c2)OCO3)cc1 | 2.7%
Cc1n[nH]c(C)c1S(=O)(=O)N1CCCCCC1 | 12.7%

4 entries from above, with each value named:
> COc1ccccc1N(CC(=O)Nc1ccccc1C(=O)NCC(C)C)S(C)(=O)=O
- AmpC inh no det = 29.4%

> CCOc1nc(-c2ccccc2)ccc1-c1noc(-c2ccco2)n1
- AmpC inh no det = -0.3%

> C=CCSc1n[nH]c(-c2ccc(OCCC)cc2)n1
- AmpC inh no det = 9.3%

> COc1cc(CCC(=O)OCn2nnc3ccccc3c2=O)cc(OC)c1OC
- AmpC inh no det = 26.7%

Pulled one by one from above (4):
SMILES | AmpC inh no det
CCN1CCN(CCCNC(=O)c2csc3c2CCCCC3)CC1 | 3.3%
CCOc1nc(-c2ccccc2)ccc1-c1noc(-c2ccco2)n1 | -0.3%
COC(=O)Cc1[nH]nc2c1C(C1C=CCCC1)C(C#N)=C(N)O2 (stereo not drawn) | -21.9%
CCC(=O)Nc1ccc(NC(=O)CSc2nnnn2C(C)C)cc1 | -2.5%

The list goes on.
SMILES | AmpC inh no det
CCOC(=O)C1=C(C)N=C2SC(C)C(=O)N2C1/C=C/c1ccccc1OC (stereo not drawn) | 63.2%
Nc1cc(Cl)ccc1N1CCOCC1 | 11.5%
Cc1ccccc1CNc1nc(N)n(-c2ccccc2)n1 | 3.98µM*[single pt active]
CCOC(=O)N1CCN(C(=O)c2cc3cc(Br)ccc3oc2=O)CC1 | 1.2%
Cc1ccc(S(=O)(=O)N2CCCC2C(=O)NC2CCCCC2)cc1 (stereo not drawn) | 24.3%
Cc1cc(C)n(S(=O)(=O)c2cc(C)c(C)cc2C)n1 | 14.8%
O=C1C2C3C=CC(C3)C2C(=O)N1c1cccc(-c2nc3ccccc3o2)c1 (stereo not drawn) | 6.5%
CC(C)n1cc2c3c(cccc31)[C@@H]1C[C@H](C(=O)O[C@@H](C)[C@H](C)O)CN(C)[C@H]1C2 | 109.1%
O=C(CSc1nnc2ccccn12)NCc1cccs1 | 3.0%
COc1ccc(OC)c(C2=NOC(C(=O)NCc3ccccn3)C2)c1 (stereo not drawn) | 12.2%
COCCn1c(=O)c(CCc2ccccc2)nc2cncnc21 | 46.9%
CC12CN3CC(C)(CN(C1)C3c1ccc(Cl)cc1Cl)C2=O (stereo not drawn) | 16.6%
CCOc1ccc(N=C(NC#N)SC)cc1 | 3.1%
CCN(CC(=O)N1CCN(C)CC1)S(=O)(=O)c1ccc(Cl)cc1 | -3.2%
COC(=O)[C@@H](NC(=O)NC(C)CCc1ccccc1)C(C)C (stereo partly drawn) | 5.5%
O=c1c2[nH]c3ccccc3c2ncn1CCN1CCOCC1 | -9.4%
COc1cccc(C(=O)NC2CC3CCCC(C2)N3CC(=O)Nc2ccccc2)c1 (stereo not drawn) | 24.4%
CCCN=C(N)/C(C(=O)OCC)=C(\O)c1ccc(OC)cc1 | 17.4%
O=C(O)C1CC(=O)N(c2ccc(OCc3ccccc3Cl)cc2)C1 (stereo not drawn) | 15.6%
CCc1cccc(NC(=O)CN2C(=O)NC3(CCCCCCC3)C2=O)c1 | -6.9%
O=[N+]([O-])c1ccc(Cl)c(Cl)c1Cl | -9.0%
COCCn1c(=O)c(-c2cccc(C#N)c2)nc2cnc(N3CCNCC3)nc21 | 37.2%
CCn1c(COc2ccccc2)nnc1SCC(=O)C(C)(C)C | 45.1%
CCCc1[nH]nc2c1C(c1ccc(OCCN3CCOCC3)c(OCC)c1)C(C#N)=C(N)O2 (stereo not drawn) | 70.0%
Fc1ccc(-c2nnc(CSc3nnc(-c4ccc5c(c4)OCO5)o3)o2)cc1 | 14.7%
COc1ccc(C)cc1NC(=O)c1ccoc1C | 2.3%
O=C(c1cc2nc(-c3ccc(F)cc3)cc(C(F)(F)F)n2n1)N1CCCC1 | -5.5%
O=C(CN1C2=NCCN2c2ccccc21)c1ccc2c(c1)OCO2 | 4.1%
COc1ccc(CCNC(=O)CCSc2nc(-c3ccco3)cc(C(F)(F)F)n2)cc1OC | 118.6%
Cc1ccc2c(c1)NC(=O)C(N1CCOCC1)(C(F)(F)F)O2 (stereo not drawn) | 12.9%
COC(=O)C1(C)C=CCN1C(=O)c1ccccc1 (stereo not drawn) | -9.5%
CCOC(=O)CN(C(=O)CSc1nnc(C)n1-c1ccccc1)c1ccccc1 | 74.7%
CCN(C(=O)COc1cc(=O)n(CC)c2ccccc12)c1cccc(Cl)c1 | 115.5%
Cc1c(C)n(C(=O)CSc2ncn[nH]2)c2ccccc12 | 8.5%
CS(=O)(=O)N1CCC(C(=O)Nc2ccc(F)cc2F)CC1 | -4.4%
Cc1cccc(NCN2C(=O)c3ccncc3C2=O)n1 | 0.3%
COc1ccc(CNC(=O)C2CCCN2S(=O)(=O)c2ccc(S(=O)(=O)N(C)C)cc2)cc1 (stereo not drawn) | 26.9%
Nc1n[nH]c2c1C1(CCCCC1)Cc1ccccc1-2 | 24.4%
CCOC(=O)c1c(C)[nH]c(C)c1C(=O)CSc1nnc(-c2ccco2)n1Cc1ccccc1 | 68.8%
COc1ccc2cc1Oc1ccc(cc1)C[C@H]1c3cc(c(OC)cc3CCN1C)Oc1c(OC)c(OC)cc3c1[C@@H](C2)N(C)CC3 | 78.3%[5.75 µM]
CC1CC(=O)c2cnc(NCc3ccco3)nc2C1 (stereo not drawn) | 5.0%
COc1ccccc1NC(=O)CCC(=O)O | -2.9%
COc1ccc(-n2c(COc3cccc(C)c3)nnc2SCC(=O)NCc2ccco2)cc1 | 81.4%
CS(=O)(=O)N1CCC(C(=O)N2CCc3ccccc3C2)CC1 | 9.0%
COC(=O)C1=C(C)N(c2ccc(C(=O)OC)cc2)C(=O)C1 | 5.9%
CCn1c(SCC(=O)Nc2ccccc2N2CCCCC2)nc2c1c(=O)n(C)c(=O)n2C | 104.2%
c1ccc2c(c1)CCN(CCCNc1nc3ccccc3n3cnnc13)C2 | 16.5%
O=C(Cn1nnc(-c2ccccc2NC(=O)c2cccs2)n1)Nc1ccccc1 | ?
CCOC(=O)CC1=C(C#N)C(c2cccnc2)C(C(=O)OCC)=C(N)O1 (stereo not drawn) | 2.7%
CCOC(=O)N1CCN(C(=O)Nc2ccccc2Cl)CC1 | 8.8%
O=C(CSc1nnc(CNc2ccc(F)cc2)n1Cc1ccco1)NC1CC1 | 19.8%
CCc1c(C(=O)Nc2cc(C)ccc2OC)[nH]c(C)c1C(C)=O | 3.5%
